rRNA inh HTS – reduced GFP signal of wild-type E. coli, primary screen, bacterial rRNA inhibitor project, GFP/RFP fluorescence, OD600, single point; E. coli WT GFP vs humanized-ribosome RFP mutants, 24 h; hits give low values; DMSO median 0, no signal -100; GFP signal change (wild-type ribosome), % (no concentration beside the values); 350,000 compounds, 1.6% hits;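 active = significant combined selectivity score with lowered wild-type GFP, culture density cut under 30%, mutant RFP and density less affected; inactive = any of these conditions unmet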; also: one replicate is shown; some compounds called inactive have numbers as strong as hits
HNF4A DNA FP – change in binding of human HNF4A to DNA, primary screen, biochemical, fluorescence polarization, FITC-DNA. Hepatocyte nuclear factor 4-alpha (Homo sapiens), P41235. 1 h. activity change, % at 10 µM. 360,000 compounds, 0.3% hits; in the data active = activity change above about 30%, passing the limit was not always enough;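 also: controls were the assay level and a saturating level of protein; the project sought stronger binding though the title names inhibitors; some compounds called inactive have numbers as strong as hits; positive values seem to mean higher polarization but the record does not say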
Target sequence (P41235 whole entry, looked up): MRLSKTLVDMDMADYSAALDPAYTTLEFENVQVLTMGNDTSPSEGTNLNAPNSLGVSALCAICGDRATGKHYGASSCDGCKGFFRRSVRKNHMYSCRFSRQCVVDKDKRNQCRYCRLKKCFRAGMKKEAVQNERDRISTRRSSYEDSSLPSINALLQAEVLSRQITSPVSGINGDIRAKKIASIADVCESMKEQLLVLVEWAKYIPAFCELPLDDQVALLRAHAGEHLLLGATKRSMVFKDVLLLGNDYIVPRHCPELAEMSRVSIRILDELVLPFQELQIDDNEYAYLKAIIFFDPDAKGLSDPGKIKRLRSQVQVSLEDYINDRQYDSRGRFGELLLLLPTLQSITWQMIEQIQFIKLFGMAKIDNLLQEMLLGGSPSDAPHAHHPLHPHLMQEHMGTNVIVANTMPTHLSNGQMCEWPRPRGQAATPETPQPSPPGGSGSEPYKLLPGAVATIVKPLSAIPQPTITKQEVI
FGF22 binding – binders of human FGF22 protein, primary screen, FGF22 synaptogenesis inhibitor project, biophysical, thermal shift, single point. calls only at 9.99 µM. Fibroblast growth factor 22 (Homo sapiens), Q9HCT0. recombinant FGF22 thermal shift, SYPRO orange fluorescence; percent of sucrose octasulfate shift, DMSO zero. 340,000 compounds, 1.5% hits;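 active = melting point raised past a set limit in the mean and every replicate; inconclusive = no clear call; three in four hits are not shown here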
Target sequence (Q9HCT0 whole entry, looked up): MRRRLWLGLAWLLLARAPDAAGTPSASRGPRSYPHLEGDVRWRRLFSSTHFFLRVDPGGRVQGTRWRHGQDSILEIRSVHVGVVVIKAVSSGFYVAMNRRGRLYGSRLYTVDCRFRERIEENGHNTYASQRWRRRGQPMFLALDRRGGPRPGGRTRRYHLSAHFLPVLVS
MLL AF4-AF9 inh – inhibitors of AF4 peptide binding to AF9, primary screen, biochemical, AlphaScreen, biotin-AF4 peptide, FLAG-AF9, single point. AID 651704, 2012. inhibition, % at 10 µM. 350,000 compounds, 0.47% hits;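 active = every replicate reaching a set inhibition limit, whatever the replicate mean, cut at about 25% in these data; inconclusive = mean inhibition reaches that limit but some replicates miss it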;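 also: 0% = plate neutral control median and 100% = total signal loss; the record names both 10 and 1 µM as test concentration; the first replicate is given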
ALR inh – inhibitors of human ALR sulfhydryl oxidase, primary screen, biochemical, H2O2 detection, HRP-luminol luminescence, single point; inhibition, % (concentration not given with the values); 290,000 compounds, 3.8% hits; FAD-linked sulfhydryl oxidase ALR (Homo sapiens), P55789; purified ALR, DTT oxidation; AID 485317, 2010;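 active = mean and each replicate at 75% or more; inconclusive = only one of the two met; inactive = neither met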;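 also: stock transfer was 7.5 nL into about 7.5 µL; 0% = neutral wells and 100% = wells with inactivated enzyme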
Target sequence (P55789 whole entry, looked up): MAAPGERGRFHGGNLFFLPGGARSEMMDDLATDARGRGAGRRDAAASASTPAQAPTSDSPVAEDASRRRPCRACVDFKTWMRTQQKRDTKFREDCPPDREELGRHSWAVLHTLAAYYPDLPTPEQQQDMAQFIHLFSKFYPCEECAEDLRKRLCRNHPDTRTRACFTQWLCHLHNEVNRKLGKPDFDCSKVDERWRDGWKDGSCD
Vif A3G – inhibitors of Vif binding to APOBEC3G peptide, primary screen, biochemical, TR-FRET, GST-Vif 1-94, biotin-A3G peptide, dose response retest (AID 1117319); Virion infectivity factor (Human immunodeficiency virus type 1 group M subtype B (isolate …; TR-FRET GST-Vif / biotin-A3G peptide binding; higher % means a stronger effect; test concentration not given here; strong numbers were not always called active; inhibition, %; hits with a dose series show IC50 in µM; 260,000 compounds, 0.57% hits;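 active = above the screen mean plus three standard deviations and confirmed in dose response; inconclusive = results disagree or hit not tested in dose response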;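 also: Vif residues 1-94 fused to GST binding biotinylated APOBEC3G peptide 110-148; 0% = full assay without inhibitor and 100% = GST in place of GST-Vif; retest series ran down from 100 µM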
E coli growth – E. coli growth inhibition, primary screen, OD600. Escherichia coli growth, 23 h; hits give low values. OD600 absorbance (no concentration beside the values). 330,000 compounds, 0.21% hits. AID 1053175, 2014;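 active = OD600 absorbance below the run mean of sample wells minus 3.6 SD, in any replicate, cut at about 0.56 in these data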;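 also: stock transfer was 300 nL into about 60 µL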
rRNA inh HTS OD600 – second read-out of rRNA inh HTS, no call of its own (marks repeat the call); OD600 change, %; measured here: OD600 growth;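 optical density of the mix in the first replicate; 0 = DMSO median and -100 = no signal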
rRNA inh HTS RFP – further read-out of rRNA inh HTS, marked with its call; RFP signal change, %; measured here: RFP humanized mutant strains;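 first replicate; 0 = DMSO median and -100 = no signal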
Numbers without * were called inactive; i = inactive; ? = inconclusive; nt = not tested or not shown; & = joins results of further samples.

SMILES | rRNA inh HTS | rRNA inh HTS OD600 | rRNA inh HTS RFP | HNF4A DNA FP | FGF22 binding | MLL AF4-AF9 inh | ALR inh | Vif A3G | E coli growth
O=C(C[C@@H]1C=C[C@@H](NC(=O)Nc2ccc3c(c2)OCO3)[C@H](CO)O1)NCc1ccccc1 | -0.8 | 1.6 | 2.2 | nt | i | 0.2 | nt | nt | nt
O=S(=O)(c1ccc(F)cc1)N1C[C@H]2[C@@H](c3ccccc31)[C@@H](CO)N2Cc1ccc2c(c1)OCO2 | -20.4 | -31.7 | 0.8 | nt | i | 3.6 | nt | nt | nt
Cc1cccc(Nc2ncnc3onc(-c4cccc(Cl)c4)c23)c1 | -17.8 | -4.7 | -2.1 | -6.0 | i | -1.3 | -8.0 | nt | 0.671
Cc1nc2ccccc2c2nc3ccccc3n12 | nt | nt | nt | -0.6 | nt | nt | 18.0 | -1.7% | 0.632
Cc1ccc(NS(=O)(=O)c2ccc(NC(=O)C3CCCO3)cc2)cc1 (stereo not drawn) | nt | nt | nt | 4.2 | nt | nt | 0.1 | 6.6% | nt
CN1C(=O)c2cc(NC(=O)C3CCCCC3)ccc2OC[C@@H]2O[C@@H](CC(=O)NCc3ccccc3F)CC[C@H]21 | -0.6 | -8.7 | 0.0 | nt | i | -1.3 | nt | nt | nt
COc1ccc(CC2(CO)CCN(Cc3cnn(-c4ccccc4)c3)CC2)cc1 | 9.2 | -0.2 | -0.5 | -1.1 | i | 4.7 | -0.9 | 6.9% | 0.627
Cc1csc(/C(C#N)=N/O)n1 | 7.4 | 6.6 | 1.7 | -2.8 | i | 5.3 | -6.7 | -0.3% | nt
COc1cccc(C(O)c2nc(-c3ccccc3)cs2)c1 (stereo not drawn) | -3.0 | -24.6 | 1.7 | 2.7 | i | -11.6 | nt | nt | nt
O=C(N/N=C/c1ccc(F)cc1)c1cc[n+]([O-])cc1 | 3.2 | 8.8 | -0.2 | -2.2 | i | -10.2 | -3.3 | nt | nt
COc1ccc(-n2c(-c3ccc(Br)cc3)nc(=S)c3c2CCCC3)cc1 | nt | nt | nt | -3.9 | nt | nt | -2.2 | 16.3% | 0.683
O=C(Nc1ccccc1F)NC1CCCc2ccccc21 (stereo not drawn) | 2.8 | 0.1 | -0.4 | 3.9 | i | -1.5 | -0.3 | -5.5% | 0.707
C/C(=N\NC(=O)c1cnccn1)c1ccc([N+](=O)[O-])cc1 | 19.0 | 12.0 | -1.1 | -1.2 | i | -0.5 | nt | 79.4% | nt
CO[C@@H]1CN(C)C(=O)c2cc(NC(C)=O)ccc2OC[C@H](C)N(C(=O)C2CCOCC2)C[C@@H]1C | 0.1 | -2.0 | -2.0 | nt | i | 3.4 | nt | nt | nt
COC(=O)c1cc2c(c3c4ccccc4n(S(=O)(=O)c4ccc(OC)cc4)c13)C(=O)N(C)C2 | -6.7 | -5.7 | 3.5 | nt | i | 0.8 | nt | nt | nt
O=C(C=C1SCCS1)/C=C/c1ccco1 | nt | nt | nt | -6.0 | nt | nt | ? | ? | 0.65
COc1ccccc1/C=C/CN1CCN(Cc2ccc(C)o2)C(CCO)C1 (stereo not drawn) | nt | nt | nt | 1.9 | nt | nt | 7.9 | 21.3% | 0.709
O=C(CN1CCN(c2ccccn2)CC1)Nc1ccc(Oc2ccccc2)cc1 | nt | nt | nt | -1.5 | nt | nt | -3.0 | 6.1% | 0.68
CN(C)S(=O)(=O)c1cc(NC(=O)CN2CCN(c3ccccc3O)CC2)ccc1Cl | -6.3 | -13.8 | -1.2 | -5.2 | i | 2.0 | 98.2* | -5.9% | 0.703
CN1CCN(C(=O)c2ccc(-c3nn(C)c(=O)c4ccccc34)cc2)CC1 | nt | nt | nt | -2.5 | nt | nt | -35.0 | 2.4% | 0.75
CCOc1ccccc1NC(=O)CCCc1nc2ccccc2c(=O)[nH]1 | nt | nt | nt | -4.2 | nt | nt | -4.7 | ? | 0.739
COc1ccc2ccccc2c1C1CC(=O)N2CN(C)CSC2=C1C#N (stereo not drawn) | 20.4 | 12.8 | 11.4 | -3.4 | nt | nt | -107.4 | ? | 0.65
Cc1ccc(NC(=O)CCC(=O)c2cccs2)cc1F | 5.1 | 5.5 | -2.4 | 0.2 | i | -2.6 | -0.6 | 0.9% | 0.613
CCOP(=O)(OCC)C(NC(=O)Nc1ccccc1)c1ccccc1 (stereo not drawn) | -15.0 | -32.4 | -7.8 | -2.0 | i | -1.9 | -4.0 | nt | 0.701
CCOC(=O)Cc1c(C)nc2c(-c3ccccc3)c(-c3ccccc3)[nH]n2c1=O | 1.2 | -4.3 | 3.0 | -0.2 | i | 2.1 | nt | -0.2% | 0.719
CCOc1ccc(N(C(=O)c2snc(C(N)=O)c2N)C(CC)C(=O)NC2CCCC2)cc1 (stereo not drawn) | 5.5 | 8.1 | -1.9 | 0.8 | i | 0.0 | nt | -12.9% | nt
Cc1n[nH]c(=S)n1/N=C/c1ccccc1OCc1ccc(Cl)cc1Cl | nt | nt | nt | -0.6 | nt | nt | 1.0 | 2.7% | nt
O=C(N[C@@H](Cc1ccc(O)cc1)C(=O)O)C(c1ccccc1)c1ccccc1 | 4.4 | 12.8 | -3.9 | -1.4 | i | -3.6 | 7.9 | 1.1% | nt
O=C(O)CSc1nc(-c2ccccc2)cc(=O)[nH]1 | 7.2 | 4.6 | 2.3 | 0.7 | nt | nt | -2.5 | 5.1% | 0.603
COc1cc(OC)c(C2C(C(=O)Nc3ccccc3)=C(C)Nc3ncnn32)cc1OC (stereo not drawn) | nt | nt | nt | 0.7 | nt | nt | -35.2 | -3.7% | 0.695
Cc1ccc(S(=O)(=O)N2CCCCC2)cc1C(=O)Nc1ccc(N2CCOCC2)cc1 | nt | nt | nt | -1.3 | nt | nt | -3.7 | 6.8% | 0.698
CNC(=O)C[C@@H]1CC[C@@H]2[C@H](COC[C@H](O)CN2C(=O)c2ccccn2)O1 | 2.1 | 20.4 | -2.9 | nt | i | -2.2 | nt | nt | nt
C[C@@H]1CN([C@@H](C)CO)C(=O)CCCn2nncc2CO[C@@H]1CN(C)Cc1cccc(C(=O)O)c1 | -4.0 | -5.9 | 3.4 | nt | i | -2.5 | nt | nt | nt
CCn1cc(C(=O)Nc2ccc(OC)c(OC)c2)c2cc(OC)c(OC)cc2c1=O | nt | nt | nt | 0.8 | nt | nt | -37.9 | -1.2% | 0.727
CC(=O)Nc1nc(SCC(=O)NCC2CCCO2)[nH]c(=O)c1NC(=O)c1cccs1 (stereo not drawn) | -1.2 | 2.4 | -1.9 | -1.2 | i | -0.4 | -2.3 | 3.8% | 0.668
CN(C)C(=O)C[C@H]1C[C@H]2c3cc(NS(C)(=O)=O)ccc3O[C@H]2[C@@H](CO)O1 | 1.9 | -0.9 | -3.9 | nt | i | -0.3 | nt | nt | nt
Oc1ccc(-c2ccccc2)cc1CN1CCCCCC1 | 10.1 | 11.2 | 0.8 | -4.3 | i | 0.3 | 27.2 | 5.6% | 0.697
O=C(CN(c1ccc(Br)cc1)S(=O)(=O)c1ccc(Cl)c([N+](=O)[O-])c1)NCC1CCCO1 (stereo not drawn) | -2.9 | 9.8 | -1.9 | -2.7 | i | -4.2 | nt | nt | 0.672
CCOC(=O)C1CN(S(=O)(=O)c2ccc(C)cc2)c2ccccc2O1 (stereo not drawn) | 3.2 | -0.9 | 0.6 | 2.2 | i | -10.9 | nt | nt | 0.671
CCCCCCN1CCN(C2CN(CCCC)S(=O)(=O)C2)CC1 (stereo not drawn) | 17.4 | 12.1 | 2.5 | 2.1 | i | -0.5 | nt | nt | nt
CCC(=O)N[C@H]1CC[C@H](CC(=O)NCc2ccccc2OC)O[C@@H]1CO | 1.7 | -0.2 | -0.7 | nt | i | -1.0 | nt | nt | nt
Cc1cccc(-n2c(=S)[nH]c3sc4c(c3c2=O)CCc2ccccc2-4)c1 | 1.3 | -5.6 | 0.2 | 6.2 | i | -2.9 | nt | 3.3% | 0.725
O=C(c1ccc(S(=O)(=O)N2CCCCCC2)cc1)N1CCN(Cc2ccccc2)CC1 | 8.5 | 16.1 | -1.4 | 4.6 | i | -0.5 | nt | nt | 0.688
Nc1nnc(SCC(=O)NC2CCCCCCC2)s1 | 0.7 | 0.1 | -1.9 | 2.3 | i | -3.3 | 5.3 | -5.6% | 0.685
Cc1ccc(S(=O)(=O)N2[C@@H](c3ccc(Cl)cc3)C(C(=O)OC(C)(C)C)=CC[C@H]2c2ccc(Cl)c(Cl)c2)cc1 | 5.4 | 21.4 | -1.2 | -4.2 | i | -2.4 | nt | nt | nt
Cc1cccc2cc(C#N)c(SCC(=O)N3CC(=O)Nc4ccccc43)nc12 | nt | nt | nt | 7.8 | nt | nt | -7.5 | 25.7%&-20.8% | 0.783
Cc1cccc(C)c1NC(=O)CN1CCN(c2ccc(C(F)(F)F)cn2)CC1 | 16.2 | 9.8 | 3.1 | -1.7 | i | 0.2 | nt | nt | nt
COC(=O)c1ccc(COC(=O)CSCC(=O)Nc2ccc(C)cc2C)cc1 | nt | nt | nt | 5.2 | i | -3.2 | nt | nt | 0.67

Results in Vif A3G, HNF4A DNA FP and rRNA inh HTS OD600, for some of the entries so far:
compound	Vif A3G	HNF4A DNA FP	rRNA inh HTS OD600
Cc1ccc(S(=O)(=O)N2[C@@H](c3ccc(Cl)cc3)C(C(=O)OC(C)(C)C)=CC[C@H]2c2ccc(Cl)c(Cl)c2)cc1	nt	-4.2	21.4
Cc1cccc2cc(C#N)c(SCC(=O)N3CC(=O)Nc4ccccc43)nc12	25.7%&-20.8%	7.8	nt

Following part:
SMILES | rRNA inh HTS | rRNA inh HTS OD600 | rRNA inh HTS RFP | HNF4A DNA FP | FGF22 binding | MLL AF4-AF9 inh | ALR inh | Vif A3G | E coli growth
CCNC(=O)C[C@H]1C=C[C@H](NC(=O)NC2CCCCC2)[C@@H](CO)O1 | 1.2 | 4.9 | -0.2 | nt | i | -2.0 | nt | nt | nt
O=C(O)c1ccccc1-c1ccccc1C(=O)Nc1ccc2c(c1)CCC2 | -21.4* | -14.1* | -1.4* | -6.0 | i | 0.8 | 26.2 | 3.2% | 0.64
CCSc1nnc(Cc2cc(=O)[nH]c(=O)[nH]2)n1-c1ccc(F)cc1 | 5.7 | 4.3 | -0.7 | -0.5 | i | -2.6 | 2.8 | 5.2% | 0.717
COc1ccc(S(=O)(=O)N(C)C[C@@H]2Oc3ccc(NS(=O)(=O)c4cn(C)cn4)cc3CC(=O)N([C@@H](C)CO)C[C@@H]2C)cc1 | 3.6 | 7.8 | 1.5 | nt | i | 0.1 | nt | nt | nt
O=C(Nc1ccc(F)cc1F)c1cccnc1 | nt | nt | nt | 1.2 | nt | nt | 0.2 | 12.1% | 0.744
COc1cc(CNC(C)c2ccccc2)cc(Br)c1OCc1ccc(F)cc1 (stereo not drawn) | -46.6 | -78.4 | -11.1 | 0.6 | i | 0.4 | -17.1 | nt | 0.593
COc1ccc(Cl)cc1-c1nc(SCC(=O)NC2CCCC2)n[nH]1 | -17.1 | -29.2 | -2.2 | 0.6 | i | 0.7 | nt | -10.0% | 0.699
CCn1c(SCCN2CCCCC2)nnc1-c1ccc(S(=O)(=O)N2CCOCC2)cc1 | nt | nt | nt | 2.4 | nt | nt | 1.0 | 15.9% | 0.696
CCCOc1ccc(Cc2c(O)nc(SC)[nH]c2=O)cc1 | 5.5 | 6.3 | -3.6 | -2.1 | i | -1.2 | 0.7 | nt | 0.671

This is a subset (hit frequency here may not be typical).
